From PubChem
KCNQ2 block – KCNQ2 channel blockers in CHO-K1 cells – cell-based, FluxOR thallium flux, B-score, primary screen (AID 2156); O88943; 20 min; hits give low values; only compounds with negative scores are shown here; some inactives read as strong as hits; B-score at 10 µM; 1.1% of 310,000 active;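 active = fluorescence ratio B-score at most minus 3 library SDs, with starting brightness B-score within 2 library SDs, cut at about -5.5 in these data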
Target sequence (O88943 whole entry, looked up): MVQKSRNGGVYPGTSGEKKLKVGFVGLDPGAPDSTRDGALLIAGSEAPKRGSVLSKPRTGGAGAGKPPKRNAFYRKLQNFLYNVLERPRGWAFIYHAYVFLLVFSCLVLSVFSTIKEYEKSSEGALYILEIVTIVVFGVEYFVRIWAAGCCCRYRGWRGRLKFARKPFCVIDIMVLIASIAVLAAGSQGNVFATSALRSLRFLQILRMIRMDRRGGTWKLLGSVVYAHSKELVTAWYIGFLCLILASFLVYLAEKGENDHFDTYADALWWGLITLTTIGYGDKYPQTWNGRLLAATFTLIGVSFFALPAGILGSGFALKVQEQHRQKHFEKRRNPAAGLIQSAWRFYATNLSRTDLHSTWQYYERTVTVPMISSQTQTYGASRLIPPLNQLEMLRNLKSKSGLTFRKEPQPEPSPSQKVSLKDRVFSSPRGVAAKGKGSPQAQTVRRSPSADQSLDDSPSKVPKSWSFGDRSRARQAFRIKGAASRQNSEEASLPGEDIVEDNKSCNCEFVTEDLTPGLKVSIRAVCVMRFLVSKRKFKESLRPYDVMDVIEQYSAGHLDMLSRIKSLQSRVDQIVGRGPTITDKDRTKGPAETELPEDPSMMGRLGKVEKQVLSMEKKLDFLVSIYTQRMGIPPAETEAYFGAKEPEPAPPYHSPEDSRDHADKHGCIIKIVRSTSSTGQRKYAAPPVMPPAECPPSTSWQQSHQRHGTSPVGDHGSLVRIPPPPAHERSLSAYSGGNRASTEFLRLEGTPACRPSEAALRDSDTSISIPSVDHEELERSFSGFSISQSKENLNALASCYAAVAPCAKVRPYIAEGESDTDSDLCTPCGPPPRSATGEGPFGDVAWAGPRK
KCNQ2 block baseline – also measured in KCNQ2 block; calls as there; B-score; measured here: initial fluorescence intensity artifact check;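 brightness before thallium and not channel activity; 0 = typical well and far values either way flag optical interference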
An asterisk follows results filed as active; i = inactive.

#	KCNQ2 block	KCNQ2 block baseline	SMILES
1	i	0.38	CC(=O)N1CCN(C(=O)c2ccc(NS(=O)(=O)c3ccc4[nH]c(=O)[nH]c4c3)cc2)CC1
2	i	0.01	COCCN(C(=O)CSc1nnc(-c2ccc(C(C)(C)C)cc2)n1N)c1c(N)n(CC(C)C)c(=O)[nH]c1=O
3	i	-1.6	c1ccc2c(c1)SCc1nnc(-c3ccncc3)n1-2
4	i	-1.8	COC(=O)c1ccc(Cn2nnc3c(=O)[nH]c(C4CCN(S(=O)(=O)c5ccc(F)cc5)CC4)nc32)cc1
5	i	2.4	O=C(COc1ccc(F)cc1)Nc1ccc(-n2cnnn2)cc1
6	i	-0.1	Cc1ccc(Cl)c(OCC(=O)Nc2cc(S(=O)(=O)N3CCOCC3)ccc2N2CCCC2)c1
7	i	1.6	CC(C)(C)c1cc(N/C=C\c2nnnn2-c2ccc(Br)cc2)no1
8	i	2.3	Cc1ccc2c(c1)-c1c(cnn1CC(=O)N(Cc1ccco1)C1CCCCC1)CO2
9	i	0.07	O=C(NCc1ccc2c(c1)OCO2)c1cc([N+](=O)[O-])ccc1N1CCCCC1
10	i	-0.4	O=C(COC(=O)c1cccc(OC(F)F)c1)NC(=O)NC1CCCCC1
11	i	-0.29	CCOc1ccc(NC(=O)C2CCCN(S(=O)(=O)c3ccc(-n4cnnn4)cc3)C2)cc1 (stereo not given)
12	i	-0.15	CCC(=O)Nc1ccc(S(=O)(=O)Nc2c(NC)c3ccccc3oc2=O)cc1
13	i	1.8	Cc1ccc2c(c1)N=C(c1ccc(Cl)cc1)CO2
14	i	-0.89	Cc1ccc(S(=O)(=O)N2CCN(C(=O)CSc3ncn[nH]3)CC2)c(C)c1
15	i	0.08	O=C(O)Cc1csc(-c2ccc(F)cc2)n1
16	i	0.26	CCN(CC)CCNC(=O)Cc1c(C(=O)O)n(C)c2ccccc12
17	i	-0.49	CCn1c(C)nc2cc(C(=O)N/N=C(\C)c3ccc(OC)cc3O)ccc21
18	i	-0.03	Cc1ccc(S(=O)(=O)CCC(=O)Nc2nnc(-c3ccccc3S(C)(=O)=O)o2)cc1
19	i	-1.4	Nc1cccc(C(=O)Nc2ccccc2Cl)c1
20	i	-0.33	Cc1ccc(-c2noc(CSc3nnnn3C3CCCCC3)n2)cc1
21	i	1.1	COc1ccc(Cl)cc1-c1n[nH]c(=S)n1Cc1ccccc1
22	i	2.4	O/N=C(\c1ccccc1)c1nccc2ccccc12
23	i	2.1	CCOC(=O)c1ccc(N=Cc2nc3ccccc3n2C)cc1
24	i	1.8	CNC(=S)NNC(=O)Cn1ccc(C)n1
25	i	-1.3	Cc1ccc2c(c1)N(CC(=O)NCc1cccs1)C(=O)CO2
26	i	0.19	O=C(NCCCN1CCCC1=O)C1CCN(S(=O)(=O)N2CCOCC2)CC1
27	i	-1.4	Cc1ccc(NC2CCCN(C(=O)c3cc4ncccn4n3)C2)cc1C (stereo not given)
28	i	0.01	Cc1cc(C)cc(NC(=O)C2CCCC2)c1
29	i	0.89	CSc1ccc(C2C(C#N)=C(N)Oc3c2ccc(=O)c2c(C)oc(C)c32)cc1 (stereo not given)
30	i	-3.5	O=C(CCCSc1nc2ccccc2[nH]1)NCc1ccco1

Single records (already shown).
O=C(COC(=O)c1cccc(OC(F)F)c1)NC(=O)NC1CCCCC1 is listed as KCNQ2 block: i; KCNQ2 block baseline: -0.4
Cc1ccc2c(c1)N=C(c1ccc(Cl)cc1)CO2 is listed as KCNQ2 block: i; KCNQ2 block baseline: 1.8
c1ccc2c(c1)SCc1nnc(-c3ccncc3)n1-2 is listed as KCNQ2 block: i; KCNQ2 block baseline: -1.6

Going on with the list.
#	KCNQ2 block	KCNQ2 block baseline	SMILES
31	i	0.15	C(=N\Nc1ccccn1)/c1cccnc1
32	i	0.44	CC(/C=N/NC(=O)Cn1cnc2c1c(=O)n(C)c(=O)n2C)=C\c1ccco1
33	i	0.92	CCCCCN1C(C)=CC(=C(C#N)C#N)C=C1C
34	i	-2.6	O=C(Nc1ccc(N2CCOCC2)cc1N1CCOCC1)c1ccc(Cl)cc1
35	i	-0.77	CC1(C)Cc2c(C#N)c(N3CCN(C(=O)c4ccco4)CC3)nc(-c3ccco3)c2CS1
36	i	0.15	O=C(CCNS(=O)(=O)c1ccc(Br)cc1)NCc1ccco1
37	i	0.88	CCN(CC)CCCN(C(=O)c1ccco1)c1nc(-c2ccc(C)cc2)cs1
38	i	4	Cc1ccccc1C(=O)Nn1cnc2ccccc2c1=O
39	i	-0.74	O=C1c2ccccc2C(=O)N1CC1=NCCc2ccccc21
40	i	3	O=C(CCN1C(=O)c2ccccc2S1(=O)=O)Nc1ccccc1F
41	i	-0.01	Cc1ccc(C(C)C)c(OCC(=O)NNC(=O)CC2OC(=O)c3ccccc32)c1 (stereo not given)
42	i	-0.14	CN(c1cccc(NC(=O)CCSc2ccccc2)c1)S(C)(=O)=O
43	i	-0.67	COc1ccccc1OCC(=O)Sc1ccc(C)cc1
44	i	0.09	O=c1oc2ccccc2cc1-c1cn2ccccc2n1
45	i	0.08	Cn1cc(/C=C2/SC(=O)N(CC(=O)Nc3ccc4c(c3)OCO4)C2=O)c2ccccc21
46	i	0.26	Cc1ccc(N(CC(=O)NC2CC2)S(=O)(=O)c2ccccc2)c(C)c1
47	i	-0.35	COc1ccc(S(=O)(=O)Nc2cc3c4c(c2)CC(=O)N4CCC3)cc1C
48	i	1.5	CCCc1cc(-c2nc(-c3ccc(Br)cc3)cs2)ccn1
49	i	-0.3	CC(C)(C)NC(=O)NC(=O)Cn1ccsc1=N
50	i	2.2	Cc1cc(C)cc(NC(=S)NCc2ccc3[nH]c4c(c3c2)CCCC4)c1
51	i	-0.91	COc1ccccc1NC(=O)C1CCCN1C(=O)Nc1ccc(F)cc1 (stereo not given)
52	i	-1.9	COc1ccc(OC)c(C(O)CNC(=O)CN)c1 (stereo not given)
53	i	0.21	CCN1CCN(S(=O)(=O)c2cccs2)CC1
54	i	-0.08	CCCCOc1ccc(N(CC(=O)NC(C)(C)C)C(=O)CCC(=O)Nc2nccs2)cc1
55	i	0.09	Cc1ccc(S(=O)(=O)NCC(=O)OCC(=O)c2ccc(Cl)s2)cc1
56	i	3	CC(=O)COc1ccc(-c2csnn2)cc1
57	i	0.26	O=C([O-])c1cc(-c2ccccc2)cc(-c2ccccc2)[n+]1Cc1ccccc1
58	i	0.36	COc1ccc(C(C)=O)cc1Cn1cnc2c(cnn2C)c1=O
59	i	-0.21	CC(C)CSc1oc(-c2ccco2)nc1S(=O)(=O)c1ccccc1
60	i	0.68	CC(C)n1c(CN2CCN(Cc3ccccc3)CC2)nc2ccccc21
61	i	-2.3	CCC(C)Nc1nc2c(c(=O)n(C)c(=O)n2C)n1Cc1ccc(Cl)cc1 (stereo not given)
62	i	1.4	O=C(Cn1nc(C(=O)O)c2ccccc2c1=O)c1cc(F)ccc1F
63	i	-0.49	CCOC(=O)N1CCC(N2CCCC(C(=O)c3ccc4cc(OC)ccc4c3)C2)CC1 (stereo not given)
64	i	-0.32	CC(C)n1nc(C(=O)OCn2nnc3ccccc3c2=O)c2ccccc2c1=O
65	i	-1.7	COc1ccc(-n2nc(C(=O)NCC(=O)NCC3COc4ccccc4O3)c3ccccc3c2=O)cc1 (stereo not given)
66	i	0.33	OC(C#CCN1CCOCC1)(c1ccccc1)C1CC1 (stereo not given)
67	i	-0.06	COC(=O)c1sccc1NC(=O)CCC1CCCCC1
68	i	0.46	O=C(NCCCc1ccccc1)C1CC1
69	i	-0.31	CC(C)(C)C1CCc2onc(C(=O)Nc3cccc(O)c3)c2C1 (stereo not given)
70	i	1.6	CSc1nnc(-c2ccc(NC(=O)CCc3ccccc3)cc2)n1C
71	i	-0.48	COc1ccc(C2C(C(=O)N3CCN(c4ccccc4)CC3)c3ccccc3C(=O)N2C)cc1 (stereo not given)
72	i	-0.23	COc1ccc(-c2cc3nc(C)cc(-c4ccc(OC)cc4)n3n2)cc1
73	-10*	-2.3*	CCOc1ccc(C(=O)Nc2cccc(-c3nc4cccnc4o3)c2)cc1Cl
74	i	2.2	CCc1ccc(/C=N/NC(=O)c2cc(-c3cccc([N+](=O)[O-])c3)n[nH]2)cc1
75	i	-0.59	COC(=O)CCCC1=CC2=CC(=O)C(C)(OC(=O)c3cccs3)C(=O)C2=CN1C1CC1 (stereo not given)
76	i	1.9	O=C(CSc1nc2ccccc2o1)N1CCCC1
77	i	-1.3	CCOc1ccc(NC(=O)CN(C)C(=O)c2cn(-c3ccccc3)nc2-c2cccs2)cc1OCC
78	i	-1.9	CCOC(=O)N1CCC(NC(=O)c2ccc3c(c2)sc2nc(-c4cccc(OC)c4)cn23)CC1
79	i	0.95	CCCC1C2C(=O)N(c3ccccc3OC)C(=O)C2ON1c1ccccc1 (stereo not given)
80	i	0.79	Cc1[nH]nc2c1C(c1ccc(-c3ccccc3C#N)o1)C(C#N)=C(N)O2 (stereo not given)
81	i	1.2	O=c1c2ccccc2nnn1CSc1nc2ccccc2c(=O)n1Cc1ccco1
82	i	0.09	COc1ccc2cc3cc(C(=O)NCCC(C)C)oc3nc2c1
83	i	-1.3	CCOc1ccc2nc(N(Cc3ccccc3)C(=O)CCNC(C)=O)sc2c1
84	i	0.24	CC1CC(c2ccccc2)n2nc(N3C(=O)c4ccccc4C3=O)nc2N1 (stereo not given)
85	i	-1.3	Cc1ccccc1-n1cc(C(=O)c2cc(Cl)ccc2O)cc(C#N)c1=O
86	i	-1.3	O=C(CN1CCN(c2nc(-c3ccc(F)cc3)cs2)CC1)NCc1ccc2c(c1)OCO2
87	i	0.01	Cc1cc(-c2ccc(S(=O)(=O)NCc3ccc(F)cc3)cc2)on1
88	-5.8*	0.71*	O=c1c(-c2ccccc2)c(-c2ccccc2)oc2cc(O)cc(O)c12
89	i	-0.01	Nc1cccc(Cl)c1N1CCOCC1
90	i	0.02	COc1cc(/C=N/NC(=O)c2c(-c3ccccc3)noc2C)ccc1O

Among those listed so far, these have bromine:
#	KCNQ2 block	KCNQ2 block baseline	SMILES
7	i	1.6	CC(C)(C)c1cc(N/C=C\c2nnnn2-c2ccc(Br)cc2)no1
36	i	0.15	O=C(CCNS(=O)(=O)c1ccc(Br)cc1)NCc1ccco1
48	i	1.5	CCCc1cc(-c2nc(-c3ccc(Br)cc3)cs2)ccn1

Structures shown so far that have a COOH group (3):
#	KCNQ2 block	KCNQ2 block baseline	SMILES
15	i	0.08	O=C(O)Cc1csc(-c2ccc(F)cc2)n1
16	i	0.26	CCN(CC)CCNC(=O)Cc1c(C(=O)O)n(C)c2ccccc12
62	i	1.4	O=C(Cn1nc(C(=O)O)c2ccccc2c1=O)c1cc(F)ccc1F

(listing goes on)
#	KCNQ2 block	KCNQ2 block baseline	SMILES
91	i	-0.7	CCC(=O)Nc1ccc(S(=O)(=O)N2CCOCC2)cc1
92	i	1.6	CN(c1ccc(OCC(=O)NCc2cccnc2)cc1)S(=O)(=O)c1ccc(Cl)cc1
93	i	0.1	CCOC(=O)c1c(S(=O)(=O)N2CCN(C)CC2)c(C)n(C)c1C
94	i	0.39	COc1cc(C=O)c(Br)cc1OCc1ccc(C)cc1
95	i	-1.6	Cc1ccc(SCC(=O)NC(=O)NCCC(C)C)c(C)c1
96	i	-1.8	Cc1ccc(N(CC(=O)NCc2ccccc2Cl)S(=O)(=O)c2c(C)noc2C)cc1
97	i	-0.86	COc1cc(NC(=O)C2CCC(=O)N2S(=O)(=O)c2ccc(C)cc2)cc(OC)c1 (stereo not given)
98	i	-0.08	Cc1ccc(SCc2cc(=O)[nH]c(Nc3nc(C)c4ccccc4n3)n2)cc1
99	i	1.2	Cc1ccc(NC(=O)COC(=O)CN2C(=O)c3ccccc3C2=O)cc1S(=O)(=O)N(C)C
100	i	1.6	O=C(Nc1ncccc1O)c1ccc(S(=O)(=O)Nc2ccccc2)cc1
101	i	-0.06	CC(C)N(C(=O)CSc1nnc(NC(=O)C2CCC2)s1)C(C)C
102	i	-1.4	N/C(=N\OC(=O)CCCOc1ccccc1)c1cccc(Br)c1
103	i	2.6	CC1(C)C(=O)CC[C@]2(C)C3C(=O)C=C4[C@H]5C[C@@](C)(C(=O)O)CC[C@]5(C)CC[C@]4(C)[C@]3(C)CC[C@@H]12 (stereo not given in full)
104	i	0.53	COCc1cc(C)n(CC(=O)Nc2ccc3c(c2)OCO3)c(=O)c1C#N
105	i	-0.25	CCCCc1nc2ccccc2c(=O)n1NC(=O)c1c(O)c2cccc3c2n(c1=O)CC3
106	i	-0.88	COc1ccc(CCNc2nc(C)nc3c2nnn3Cc2ccccc2)cc1
107	i	-1.1	O=C(O)C1CCCCC1C(=O)NC1C2CC3CC(C2)CC1C3 (stereo not given)
108	i	-0.38	Cc1cccc(CS(=O)(=O)Cc2ccc(C(=O)NCCCN3CCCC3)o2)c1
109	i	-0.06	C[C@@H]1C(=O)O[C@@H]2[C@H](O)C34[C@H]5C[C@@H](C(C)(C)C)C36[C@H](OC(=O)[C@@H]6O)OC4(C(=O)O5)[C@@]12O (stereo not given in full)
110	i	-1.2	CC(C)c1ccccc1NC(=O)COC(=O)c1c2c(nc3ccccc13)CCN(Cc1ccccc1)C2
111	i	1.7	O=C(/C(=C(\[O-])c1ccccc1)[n+]1ccc2ccccc2c1)c1ccc(Cl)cc1
112	i	1.6	C=CCN1C=C2C(=O)C(C)(OC(=O)c3ccc(OC)cc3)C(=O)C(c3ccco3)=C2C=C1CCCC (stereo not given)
113	i	-0.41	CN(C)CCCN(C(=O)c1cc(-c2cccs2)nc2ccccc12)c1nc2c(F)cccc2s1
114	i	0.7	CCc1ccc(C(=O)COC(=O)c2n[nH]c3ccccc23)cc1
115	i	2.6	COCC(=O)N1CCC(Oc2ccc(C(=O)N(C)C3CCCCC3)cc2)CC1
116	i	0.1	COC(=O)c1cccc(NC(=O)CCCOc2cccc(C)c2)c1
117	i	0.01	Cc1ccc(CCNc2ccc3ccccc3c2)cn1
118	i	-1.2	CCn1cc(CNC(=O)c2cc(Cl)ccc2OC)c(C)n1
119	i	-0.26	CC1CN(C(=O)CCC(=O)NCc2ccccc2)c2ccccc2S1 (stereo not given)
120	i	-0.36	O=C(CNC(=O)c1ccccc1)OC(C(=O)c1ccccc1)c1ccccc1 (stereo not given)

This is a subset (hit frequency here may not be typical).
